# Source: PubChem BioAssay
# YopH inh – YopH (Yersinia) phosphatase inhibition; AID 898; fluorescence Ex485/Em525; inhibition, %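 (about 10 µM by stock and volumes)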; 140,000 compounds, 0.16% hits;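 active = inhibition of 50% or more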;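 note: controls were vehicle for no effect and minimum signal wells for full effect; inactives centre near -20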
# Mtb betalactam – beta-lactam sensitization of Mtb H37Rv; M. tuberculosis H37Rv growth with meropenem, percent inhibition; hits of this screen are not shown here; inhibition, % at 25 µM; 330,000 compounds, 0.27% hits; AID 434955;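 active = about 74% or more and at least 40 points above the plate without the antibiotic, then above 30% in a dose series; inconclusive = first-round hits that could not be retested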;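 note: growth measured after seven days incubation then overnight dye step; 0% = bacteria only wells and 100% = bacteria with antibiotic; twin plates without the antibiotic show which effects depend on it; some results filed as inactive read as strong as hits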
# RecA splice inh – Mtb RecA intein splicing inhibition | P9WHJ3 | cell-free RecA intein splicing, fluorescence | inhibition, %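 (about 9 µM by stock and volumes)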 | 290,000 compounds, 0.75% hits | AID 2221; in the data active = inhibition above about 30%; inconclusive = no clear call, values can overlap the other calls;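 note: 0% = vehicle wells and 100% = reference inhibitor control wells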
# Target sequence (P9WHJ3 whole entry, looked up, canonical isoform): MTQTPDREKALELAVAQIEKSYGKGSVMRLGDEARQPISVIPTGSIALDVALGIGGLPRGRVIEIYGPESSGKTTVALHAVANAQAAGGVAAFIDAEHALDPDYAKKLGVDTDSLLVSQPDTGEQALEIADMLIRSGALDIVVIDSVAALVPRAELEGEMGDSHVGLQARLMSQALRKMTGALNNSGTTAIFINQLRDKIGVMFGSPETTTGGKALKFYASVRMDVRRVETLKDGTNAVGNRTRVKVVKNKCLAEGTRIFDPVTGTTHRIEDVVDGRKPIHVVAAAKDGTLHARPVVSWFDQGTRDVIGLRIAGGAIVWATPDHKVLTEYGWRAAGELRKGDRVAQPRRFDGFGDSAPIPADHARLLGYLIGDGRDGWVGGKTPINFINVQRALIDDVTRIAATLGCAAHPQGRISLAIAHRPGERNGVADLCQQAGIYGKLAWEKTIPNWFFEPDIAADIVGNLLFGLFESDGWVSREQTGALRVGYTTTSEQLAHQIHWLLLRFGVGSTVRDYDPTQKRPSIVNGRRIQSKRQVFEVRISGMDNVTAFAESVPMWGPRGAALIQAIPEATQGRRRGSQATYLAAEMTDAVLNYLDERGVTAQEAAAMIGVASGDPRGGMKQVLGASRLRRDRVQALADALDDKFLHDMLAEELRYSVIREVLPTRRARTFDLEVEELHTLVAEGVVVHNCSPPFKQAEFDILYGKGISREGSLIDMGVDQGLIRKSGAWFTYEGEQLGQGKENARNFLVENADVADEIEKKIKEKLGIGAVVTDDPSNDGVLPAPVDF
# Arbovirus inh – blocks arbovirus infection | arbovirus infection cell-based antiviral screen | inhibition, % at 10 µM | 200,000 compounds, 0.37% hits | AID 1251;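 active = inhibition from about 30%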;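 note: bluetongue infection of BSR cells; cell survival read as ATP light after 72 h; 0% = infected wells without compound and 100% = uninfected wells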
# Mtb growth – M. tuberculosis H37Rv growth inhibitors, H37Rv strain (AID 1626); M. tuberculosis H37Rv growth inhibition; higher % means a stronger effect; inhibition, % at 10 µM; hits with a dose series show IC50 in µM; 220,000 compounds, 0.95% hits;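 active = confirmed in a dose series; inconclusive = inhibition above 80% but not taken into the dose series; inactive = below 80% or under 30% at every dose of the series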;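 note: bacteria incubated seven days before Alamar blue readout; 0% = bacteria only wells and 100% = bacteria with antibiotic wells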
# Arbovirus inh repeat – recorded beside Arbovirus inh, whose call it bears; inhibition, %; measured here: 10K subset replicate screen; many hits read low in the repeat;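 first of two repeat runs on a subset; 0% = infected and 100% = uninfected wells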
# * = called active by the depositor; ? = inconclusive; nt = no result given; & = joins results of further samples. An excerpt; the hit share may differ from the screen's.
SMILES,YopH inh,Mtb betalactam,RecA splice inh,Arbovirus inh,Mtb growth,others
CCOc1ccc(C2CC(=O)NC(SC)=C2C#N)cc1 (stereo not given),-46,-5,1.5,-4,-5%,Arbovirus inh repeat=6
O=S(=O)(Cc1cccc(F)c1)c1c[nH]c2ccccc12,-52,4,3.6,6,0%,
O=S(=O)(c1ccc(-c2csc(-c3cccnc3)n2)cc1)N1CCCCC1,-7,45,nt,-2,5%,
COc1ccc(-c2c(=O)n(OCc3ccccn3)c3ccccc3[n+]2[O-])cc1OC,25,-6,-2.5,3,-8%,
CCOC(=O)c1c(C)c(C(=O)NC(C)COC)c(C)n1C (stereo not given),-42,-14,0.4,5,-1%,
Cc1nc2ncnn2c(C)c1CCC(=O)Nc1csc(N)n1,-32,-10,2.8,-4,0%,
CN1c2ccccc2C2(C)CCCC3=Cc4cc([N+](=O)[O-])cc([N+](=O)[O-])c4OC312 (stereo not given),-27,-2,-1.3,4,2%,
CN(C)c1cc(-c2ccc(Cl)cc2Cl)oc(=O)c1Cl,nt,-3,13,nt,7%,
CCOCC(=O)Nc1cc(C(=O)OC)cc(C(=O)OC)c1,-4,0,0.8,-1,8%,
CC1(C)OC(=O)C(=NNc2ccccc2)C(=O)O1,-23,2,1.5,-22,0%,
CCn1c(=O)cc(SCC(=O)NCc2cccnc2)c2ccccc21,-3,-6,2.0,-4,-6%,
COc1ccc(N=C2SCC(=O)N2c2ccc(OC)cc2)cc1,-33,-2,1.3,-1,nt,
FC(F)(F)c1cccc(NC(=S)N(CCCN2CCCC2)Cc2cccn2Cc2ccc(Cl)cc2)c1,nt,99,5.8,-33,1%,
Cc1ccc(-c2csc3ncnc(-n4nnc5ccccc54)c23)cc1C,-33,2,2.8,-1,6%,
C=CCOc1ccccc1CN1CCC(n2nccc2NC(=O)c2ccccc2)CC1,nt,-2,2.6,nt,nt,
CCOc1ccc(NC(=O)Nc2ccc3nccnc3c2)cc1,-43,9,2.9,-21,75%,
COC(=O)c1ccc(SCC(=O)NC2CCCC2)c([N+](=O)[O-])c1,-14,1,-0.9,7,0%,
Cc1ccc(-c2nnc(SCC(=O)NCC3CCCO3)n2C)cc1 (stereo not given),0,-4,-1.1,-1,0%,
COc1ccc(N2CCN(C(=O)CNS(=O)(=O)c3ccc(C)cc3)CC2)cc1,nt,-4,-0.8,-1,6%,
Cn1c(SCC(=O)N2CCOCC2)nc(O)cc1=O,-30,-3,1.2,6,-8%,
O=C(CNC(=O)c1ccc([N+](=O)[O-])cc1)N/N=C\c1ccc(OC(=O)c2ccccc2)cc1,-13,0,1.9,0,2%,
CN(C)c1ccc(/C=C(\NC(=O)c2ccccc2)C(=O)NCc2cccnc2)cc1,nt,5,-2.1,nt,nt,
COc1ccc(CC(NC(C)=O)C(=O)NC2CCN(c3c(Cc4ccccc4)c(C)nc4ncnn34)CC2)cc1OC (stereo not given),-25,1,1.8,-1,-6%,
Cc1ccc2[nH]c(=O)c(CC(=O)O)c(-c3ccccc3)c2c1,nt,5,-1.5,nt,nt,
Cc1ccc(Cl)cc1NC1=NC(=S)N(C(C)C)C12CCCCC2,-24,12,-0.9,-1,0%,
OC12ONC(c3ccccn3)C1N1CCC2CC1 (stereo not given),-33,-7,-1.8,3,5%,
CCc1ccc(Oc2cc(C)nc(N)n2)cc1,0,6,-0.2,3,4%,
O=C(COc1ccc(S(=O)(=O)N2CCCC2)cc1Cl)NC1CCCC1,-22,-1,nt,-7,-3%,
O=C(N/N=C/C(Cl)=C/c1ccccc1)c1ccccn1,nt,96,0.8,-7,13%,
Cn1c(=O)c2c(nc(NCCc3ccccc3)n2CC(=O)NCCc2ccccc2)n(C)c1=O,-10,-13,0.3,-6,-1%,
CN(Cc1ccccc1)S(=O)(=O)c1cccc2cccnc12,-11,-4,nt,4,5%,
Cc1onc(-c2c(Cl)cccc2Cl)c1C(=O)NNc1ccccc1,nt,83,nt,nt,36%,
Nc1ccc(N2CCOCC2)c(Cl)c1,-4,-1,nt,1,-11%,
O=C(COc1ccccc1)Nc1nnc(-c2ccco2)o1,nt,8,-2.9,4,-4%,
Cc1ccc(O)c(Cn2nnc3ccccc32)c1,nt,-3,2.5,nt,nt,
C#CCN(CC=C)C(=O)c1ccc2nc(C3CCCCC3)oc2c1,nt,7,2.7,nt,nt,
CCCNC(=O)C1CNc2ccccc2O1 (stereo not given),-2,1,-7.9,-6,-7%,
CC[n+]1ccc(C(=O)NCc2ccccc2)cc1,nt,-12,-3.0,4,-1%,
CCOC(=O)c1c(C)n(Cc2ccccc2)c2ccc(OCC(O)Cn3nc(C)cc3C)cc12 (stereo not given),-1,24,nt,-27,23%,
Cc1oc(-c2ccccc2)nc1CSc1nc2c(c(=O)[nH]1)CCC2,-26,-10,1.5,13,nt,
Cc1cccc(NC(=O)c2ccc(S(=O)(=O)N(C)CC3CCCO3)cc2)c1C (stereo not given),nt,?,-2.8,nt,nt,
COc1ccc2[nH]cc(CCNS(=O)(=O)c3ccccc3)c2c1,nt,0,0.4,-2,-7%,
C/C=C(\C)C(=O)N[C@@H](C)CN1C2=NC[C@H](C(C)C)N2C[C@H]1Cc1ccc(OC)cc1,nt,nt,-1.4,nt,-7%,
NC(=O)c1ccccc1NC(=S)NC(=O)CCc1ccccc1,-16,1,1.3,-14,43%,
CC1CCCN(S(=O)(=O)c2ccc(S(=O)(=O)N3CCCN(Cc4ccccc4)C3)cc2)C1 (stereo not given),nt,nt,-0.5,nt,-2%,
CCN1CCN(C2CC(=O)NC2=O)CC1 (stereo not given),nt,5,-2.5,1,-3%,
Cc1ccc(S(=O)(=O)NNC(=O)Nc2ccc([N+](=O)[O-])cc2)c(C)c1,nt,-4,0.2,nt,nt,
COc1ccc(CCNC(=O)COc2ccc(N(C)S(=O)(=O)c3ccc(C)cc3)cc2)cc1OC,nt,17,3.9,4,8%,
COc1cc(OC)c(C(=O)OCN2C(=O)c3ccccc3C2=O)cc1OC,nt,-1,-3.3,nt,nt,
COCCCNS(=O)(=O)c1ccc(Cl)c(C(F)(F)F)c1,nt,2,1.3,4,3%,
CCc1ccc(CN(C)CC(=O)Nc2ccccc2[N+](=O)[O-])cc1,-20,7,12,15,-1%,
Cc1nc(C)n(C(C)CNC(=O)c2cccc(Br)c2)n1 (stereo not given),nt,0,-1.4,nt,nt,
Cc1cccc(COCCN2CCN(S(=O)(=O)c3ccccc3)CCC2=O)c1,nt,-10,0.2,nt,-11%,
S=C(Nc1ccc(Oc2ccccc2)cc1)NC1CCCC1,5,-9,4.5,8,54%,
CNC(=O)C1CC(=O)N(CCc2ccc(OC)cc2)C(=Nc2ccc(OC)cc2)S1 (stereo not given),-32,-2,3.0,7,-4%,
CN(C)S(=O)(=O)c1cccc(C(=O)NCc2ccco2)c1,-10,?,3.3,-1,-11%,
O=C(Nc1ccc(NC(=O)c2ccco2)cc1)c1ccc2c(c1)OCO2,-17,6,-1.1,-19,10%,
CNS(=O)(=O)c1ccc(N2CCCC2)c([N+](=O)[O-])c1,nt,-4,-1.9,7,-2%,
COc1ccc(NC(=O)Cn2nc(C(F)(F)F)c3c2CCCC3)c(OC)c1,-26,-27,2.0,0,-7%,
COC(=O)c1cc(CNC(=O)c2sccc2-c2ccccc2)ccc1OC,nt,0,1.6,nt,nt,

# Sorted by formula weight (highest first): part of the list above.
SMILES,YopH inh,Mtb betalactam,RecA splice inh,Arbovirus inh,Mtb growth,others
COc1ccc(CCNC(=O)COc2ccc(N(C)S(=O)(=O)c3ccc(C)cc3)cc2)cc1OC,nt,17,3.9,4,8%,
CC1CCCN(S(=O)(=O)c2ccc(S(=O)(=O)N3CCCN(Cc4ccccc4)C3)cc2)C1 (stereo not given),nt,nt,-0.5,nt,-2%,
CNC(=O)C1CC(=O)N(CCc2ccc(OC)cc2)C(=Nc2ccc(OC)cc2)S1 (stereo not given),-32,-2,3.0,7,-4%,
Cc1cccc(COCCN2CCN(S(=O)(=O)c3ccccc3)CCC2=O)c1,nt,-10,0.2,nt,-11%,
COc1ccc(NC(=O)Cn2nc(C(F)(F)F)c3c2CCCC3)c(OC)c1,-26,-27,2.0,0,-7%,
COC(=O)c1cc(CNC(=O)c2sccc2-c2ccccc2)ccc1OC,nt,0,1.6,nt,nt,
Cc1ccc(S(=O)(=O)NNC(=O)Nc2ccc([N+](=O)[O-])cc2)c(C)c1,nt,-4,0.2,nt,nt,
O=C(Nc1ccc(NC(=O)c2ccco2)cc1)c1ccc2c(c1)OCO2,-17,6,-1.1,-19,10%,
COCCCNS(=O)(=O)c1ccc(Cl)c(C(F)(F)F)c1,nt,2,1.3,4,3%,
CCc1ccc(CN(C)CC(=O)Nc2ccccc2[N+](=O)[O-])cc1,-20,7,12,15,-1%,
S=C(Nc1ccc(Oc2ccccc2)cc1)NC1CCCC1,5,-9,4.5,8,54%,
CNS(=O)(=O)c1ccc(N2CCCC2)c([N+](=O)[O-])c1,nt,-4,-1.9,7,-2%,
CCN1CCN(C2CC(=O)NC2=O)CC1 (stereo not given),nt,5,-2.5,1,-3%,

# Carrying on:
SMILES,YopH inh,Mtb betalactam,RecA splice inh,Arbovirus inh,Mtb growth,others
COc1cccc(-n2c(Cc3cc(=O)[nH]c(=O)[nH]3)nnc2SCc2cccnc2)c1,-3,-1,nt,1,-13%,Arbovirus inh repeat=3
CCC(C)(C)NC(=O)COc1ccc(C(=O)c2ccccc2)cc1,nt,7,2.8,4,2%,
COc1ccc(CC(=O)N(Cc2ccccc2)c2ccccc2)cc1S(=O)(=O)N1CCOCC1,nt,8,-7.4,nt,nt,
NCCCCCc1nnc(SCC(=O)Nc2cccc(Cl)c2)o1,-46,-4,-0.9,-1,-5%,
CCCSC1=N/C(=C\C=C\c2ccco2)C(=O)S1,-5,22,3.5,16,21%,
COc1ccc(CC(NC(C)=O)C(=O)NC2CCN(c3c4c(nc5ncnn35)CCC4)CC2)cc1OC (stereo not given),nt,-7,nt,nt,0%,
CC(C)(C)n1nc(Cc2cccc3ccccc23)c(C#N)c1N,nt,-12,4.3,nt,2%,
Cc1ccc(C)c(S(=O)(=O)NCC(=O)Nc2sc3c(c2C(N)=O)CCC(C)C3)c1 (stereo not given),-11,-1,-9.0,-9,-6%,
COCCn1nnnc1C(C(C)C)N(Cc1cccnc1)Cc1cc2cc(OC)ccc2[nH]c1=O (stereo not given),-27,-5,3.1,5,-11%,
Nc1nc(-c2ccco2)nn1C(=O)c1ccc(F)cc1,nt,nt,15,5,-2%,
COC(=O)[C@@H]1C[C@@]2(O)[C@H](O)[C@H](O)[C@H](O)C[C@H]2N1Cc1cccc2ccccc12,nt,-4,0.1,nt,-10%,
Cc1nnc(SCC(=O)NC(C)(C)C)n1C1CCCCC1,-24,-3,1.0,3,-1%,
Cc1ccc(-n2nc3c(=O)n(CC(=O)NC4CCCCC4)nc(C)c3c2C)cc1,nt,0,4.4,nt,nt,
N#C/C(=C(/O)c1ccc([N+](=O)[O-])cc1)c1nc2ccccc2[nH]1,nt,0,0.6,nt,-3%,
CCO[C@@H]1OC(C(=O)NCc2nc3ccccc3[nH]2)=C[C@H](c2ccccc2)[C@H]1CCCO,nt,-8,1.4,4,-4%,
O=C1CCCN1Cc1ccccc1,nt,1,-2.4,nt,nt,
O=C(COC(=O)CSc1ccc(F)cc1)NCC1CCCCC1,nt,-10,2.0,nt,nt,
O=C1N=C2SCCN2/C1=C\c1c(Cl)cccc1Cl,-33,2,-5.7,13,-12%,
O=C(CSc1nnc(Cn2c(=O)sc3ccccc32)n1-c1ccccc1)N1CCOCC1,-18,-3,nt,4,-11%,
CON/C=C(\C=Nc1ccc(Cl)cc1Cl)c1ncc(C(F)(F)F)cc1Cl,-37,0,-1.0,-16,1%,
CN(C)C(=O)c1cc2cc([N+](=O)[O-])ccc2s1,0,15,-1.8,0,-2%,
CC(=O)NCc1ccc(S(=O)(=O)N/N=C/c2ccc(Br)cc2)cc1,-17,-1,-0.9,-12,-4%,
O=C(Nc1cccc(C(F)(F)F)c1)c1cc2c(=O)c3ccccc3oc2nc1C(F)(F)F,-16,-1,0.2,-12,2%,
COc1cc(C2C(C(=O)c3ccc(C)o3)=C(O)C(=O)N2Cc2cccnc2)ccc1O (stereo not given),-23,3,-10&-1.7,0,-14%,
COC(=O)C(C(=O)OC)c1ncccc1[N+](=O)[O-],nt,-2,-6.2,nt,-7%,
Cc1ccc(Nc2[nH]c(=O)c3ccccc3c2C(=O)c2ccccc2)cc1,nt,-6,0.7,nt,-2%,
CCOC(=O)CSc1nnnn1-c1cc(OC)c(Cl)cc1OC,-41,0,-6.5,2,0%,
O=C(Nc1ccc(F)cc1)Nc1csc2ccccc12,nt,99,-5.8,nt,58%,
